GIRK2 act = opens human GIRK2 potassium channels; P48051; HEK293-GIRK2 thallium flux, Thallos fluorescence; calls only for hits at 25 µM; 63,000 compounds, 0.05% hits;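 active = among the strongest 0.2% of first-round signals and kept after retests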;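 also: first round at about 10 µM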
Target sequence (P48051 whole entry, looked up): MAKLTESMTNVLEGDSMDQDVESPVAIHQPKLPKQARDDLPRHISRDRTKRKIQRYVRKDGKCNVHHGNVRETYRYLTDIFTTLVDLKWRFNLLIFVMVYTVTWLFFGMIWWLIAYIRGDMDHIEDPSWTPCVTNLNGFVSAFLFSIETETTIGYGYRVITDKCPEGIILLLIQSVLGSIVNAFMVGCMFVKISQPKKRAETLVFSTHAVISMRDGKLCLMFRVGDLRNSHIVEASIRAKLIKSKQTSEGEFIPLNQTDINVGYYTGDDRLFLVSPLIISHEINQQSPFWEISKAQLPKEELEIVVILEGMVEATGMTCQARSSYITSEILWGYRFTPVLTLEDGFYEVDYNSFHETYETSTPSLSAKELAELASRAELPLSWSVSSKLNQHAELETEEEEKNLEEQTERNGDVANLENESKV
Calls only; i = inactive. This is a subset. The share of hits here may be higher or lower than overall.

SMILES	GIRK2 act
CN(C)C(=O)C(=O)c1cn(CC(=O)N2CCOCC2)c2ccccc12	i
CC(C)Cn1c(N2CCN(c3ccccc3)CC2)nc2c1c(=O)[nH]c(=O)n2C	i
CCCCc1ccc(NC(=O)c2ccc3nccnc3c2)cc1	i
Cn1cccc(C(=O)NCCc2nc3c(c(C(F)(F)F)n2)CCCC3)c1=O	i
O=C(Cc1ccccc1Cl)NCC(O)C1CCCCC1 (stereo not given)	i
COC(=O)c1ccc(C2C(=C(O)c3ccc(F)cc3)C(=O)C(=O)N2c2cc(C)on2)cc1 (stereo not given)	i
CCc1noc(Cn2cnc3c4cc(C)ccc4n(CC(=O)Nc4ccc5c(c4)OCO5)c3c2=O)n1	i
CC(C)CCOc1cccc(N2CCn3c2nc2c3c(=O)n(C)c(=O)n2C)c1	i
O=C(CCn1cnc2ccccc2c1=O)N1CCN(CC(O)c2cccs2)CC1 (stereo not given)	i
COc1ccc(OC)c2sc(N(Cc3cccnc3)C(=O)c3cc(C)no3)nc12	i
Cn1nc(C2CCN(CC(=O)NC3CC3)CC2)n(-c2ccccc2)c1=O	i
O=C(Cn1c(=O)oc2ccccc21)Nc1nc2c(s1)COc1ccccc1-2	i
NC(=NC1CCC(F)CC1)NO (stereo not given)	i
CCC(C(=O)NCC1(O)CCOc2ccccc21)c1ccccc1 (stereo not given)	i
CCCS(=O)(=O)N1CCC(c2nnc(Cc3ccc(OC)cc3)s2)CC1	i
CCOC(=O)C1=C(C)NC(=O)NC1c1ccc(O)c(OC)c1 (stereo not given)	i
Cc1cccc(C)c1NC(=O)CSc1nccn1-c1cccc(C(=O)NCc2ccccc2)c1	i
Cc1ccccc1OCC(=O)NCC(C)(O)c1ccco1 (stereo not given)	i
COc1ccc(NS(=O)(=O)C2CC2)cc1Cl	i
Cc1noc(C2CCCN2C(=O)CCCc2ccccc2)n1 (stereo not given)	i
O=C(/C=C/c1cccc([N+](=O)[O-])c1)Nc1ccccc1	i
COc1ccc(CNC(=O)c2cn(-c3cccc(F)c3)nn2)c(OC)c1	i
O=C(CCSc1ccccc1)N1CCC(COCc2ccccc2)CC1	i
CCc1ccc(S(=O)(=O)NCc2sc(-c3ccccc3)nc2C)s1	i
CCCOc1ccc(S(=O)(=O)Nc2ccc3c(c2)NC(=O)C(C)(C)CO3)cc1	i

Sorted by SMILES length (smallest number first): part of the list above.
SMILES	GIRK2 act
O=C(Cc1ccccc1Cl)NCC(O)C1CCCCC1 (stereo not given)	i
Cc1noc(C2CCCN2C(=O)CCCc2ccccc2)n1 (stereo not given)	i
CCC(C(=O)NCC1(O)CCOc2ccccc21)c1ccccc1 (stereo not given)	i
CCOC(=O)C1=C(C)NC(=O)NC1c1ccc(O)c(OC)c1 (stereo not given)	i
COc1ccc(OC)c2sc(N(Cc3cccnc3)C(=O)c3cc(C)no3)nc12	i
Cc1cccc(C)c1NC(=O)CSc1nccn1-c1cccc(C(=O)NCc2ccccc2)c1	i
CCc1noc(Cn2cnc3c4cc(C)ccc4n(CC(=O)Nc4ccc5c(c4)OCO5)c3c2=O)n1	i

Back to the main list with the 4 entries that preceded the break.
SMILES	GIRK2 act
COc1ccc(CNC(=O)c2cn(-c3cccc(F)c3)nn2)c(OC)c1	i
O=C(CCSc1ccccc1)N1CCC(COCc2ccccc2)CC1	i
CCc1ccc(S(=O)(=O)NCc2sc(-c3ccccc3)nc2C)s1	i
CCCOc1ccc(S(=O)(=O)Nc2ccc3c(c2)NC(=O)C(C)(C)CO3)cc1	i
Cc1ccc(C)c(N2CCN(C(=O)c3ccc4c(=O)nc5c(-c6ccccc6)n[nH]n5c4c3)CC2)c1	i
O=C(Nc1nnc(-c2cccs2)o1)C1CCN(S(=O)(=O)c2ccc(F)cc2)CC1	i
CCOc1ccc(NS(=O)(=O)c2n[nH]c(C)c2C(=O)Nc2ccc(OC)c(Cl)c2)cc1	i
Cn1c(=O)[nH]c(=O)c2c1nc1n2CCCN1c1cccc(O)c1	i
C=CCn1c(SCCC(=O)Nc2ccc(F)cc2)nc2scc(-c3ccco3)c2c1=O	i
Cc1cc(C)c(C)c(S(=O)(=O)NCC(=O)NCC2CCCO2)c1C (stereo not given)	i
CCCn1cc(SCC(=O)N2N=C(c3ccc(Br)cc3)CC2c2ccc(OC)cc2)c2ccccc21 (stereo not given)	i
C=C(C)Cn1c(=O)c2c(nc3n(CC(=C)C)c(C)c(C)n23)n(C)c1=O	i
CSc1ccc(-c2noc(CN3C(=O)COc4cc(Cl)ccc43)n2)cc1	i
CCOc1ccccc1CNC(=O)c1sccc1N(C)S(=O)(=O)c1ccc(C)cc1	i
O=C(CSc1ncc(-c2cccc([N+](=O)[O-])c2)n1-c1ccccc1)N1CCCC1	i
COc1ccc(OC)c(-c2cc(C(=O)NCC3CCN(C(=O)c4snnc4C)CC3)n(C)n2)c1	i
COc1ccc(S(=O)(=O)Nc2ccc3c(c2)N(S(=O)(=O)c2ccccc2)CCC3)cc1OC	i
COCCCNc1nc2c(c(=O)[nH]c(=O)n2C)n1CC(O)COc1ccc(C)c(C)c1 (stereo not given)	i
O=C(COc1cccc2ccccc12)Nc1cc(OCc2ccccc2)ncn1	i
CS(=O)(=O)NCC1CCC(C(=O)NCC(F)(F)F)CC1 (stereo not given)	i
COc1ccc(S(=O)(=O)CC(=O)Nc2sc3c(c2C(N)=O)CCN(Cc2ccccc2)C3)cc1	i
CCCCCn1c(SCC#N)nc2cc(C(=O)N(C)Cc3ccccc3)ccc2c1=O	i
O=C(c1cn(-c2cccc(Cl)c2)nn1)N1CCN(Cc2ccccc2)CC1	i
CSc1ccc2nc(N3CCN(C(=O)c4nc5ccccc5s4)CC3)sc2c1	i
N#CCSc1ncc(-c2ccccc2)n1-c1ccc(OC(F)F)cc1	i
CC(C)(C)c1ccc(OCC(O)CN2CCCC2)c(C(C)(C)C)c1 (stereo not given)	i
CCN(C(=O)C(=O)c1c[nH]c2ccccc12)C1CCCCC1	i
CCOc1ccc(-c2ccnc3c(C(=O)NCc4ccccc4Cl)cnn23)cc1	i
C=CCSc1nnc(NC(=O)c2ccc(Cl)c(S(=O)(=O)N3CCCCCC3)c2)s1	i

Some of the entries above in a different format:
GIRK2 act | structure
i | O=C(Nc1nnc(-c2cccs2)o1)C1CCN(S(=O)(=O)c2ccc(F)cc2)CC1
i | CCOc1ccc(NS(=O)(=O)c2n[nH]c(C)c2C(=O)Nc2ccc(OC)c(Cl)c2)cc1
i | Cn1c(=O)[nH]c(=O)c2c1nc1n2CCCN1c1cccc(O)c1

Following part
SMILES	GIRK2 act
Cc1cn2c(nc3c2c(=O)n(Cc2ccccc2Cl)c(=O)n3C)[nH]1	i
Cc1ccc(-c2cc3c(NC(=O)C4CC4)ncnc3o2)cc1	i
O=C(NCCCS(=O)(=O)N1CCN(c2ccccn2)CC1)c1ccc([N+](=O)[O-])o1	i
COc1ccc(S(=O)(=O)N2CCCCC2)cc1C(=O)Nc1nccs1	i
Cc1ccc(-c2ccc(S(=O)(=O)N3CCCCCC3)cc2)cc1	i
COc1cccc2cc(C(=O)N3CCOCC3CO)oc12 (stereo not given)	i
Cc1ccc(S(=O)(=O)NCCn2cnc(-c3ccc(F)cc3)cc2=O)s1	i
O=C(Nc1nc(-c2ccccn2)cs1)c1cc(-c2ccco2)on1	i
N#CCSc1ncc(-c2cccc([N+](=O)[O-])c2)n1-c1ccccc1	i
COc1cccc(CNC(=O)Cn2c(C)cc(C)c(S(=O)(=O)c3ccc(C)cc3)c2=O)c1	i
NCc1cn(-c2ccccc2)nn1	i
COc1cc(/C=C/C(=O)Nc2cc(-n3ccc4ccccc43)ncn2)cc(OC)c1OC	i
Cc1cc(C)cc(Nc2cc(C)nc3nc(C(F)(F)F)nn23)c1	i
COc1ccccc1C(=O)Cn1cccc(-c2nc(-c3ccsc3)no2)c1=O	i
COc1cc2ncc(C#N)c(N3CCC(C(=O)Nc4cccc(C(F)(F)F)c4)CC3)c2cc1OC	i
CS(=O)(=O)c1ccc(Nc2nc(C(=O)Nc3nc(CC(N)=O)cs3)cs2)cc1	i
O=C(CCSc1ccccc1)N1CC(c2nc(Cc3ccccc3)no2)C1	i
CC(CCc1ccccc1)NC(=O)c1cc(OCc2ccccc2)no1 (stereo not given)	i
COc1ccc(CCC(=O)N(Cc2ccsc2)Cc2ccco2)cc1	i
Cc1cc(NC(=O)c2ccccc2C(F)(F)F)sn1	i
CCc1ccc(NC(=O)CSc2nnc(-c3ccc(OC)c(OC)c3)n2N)cc1	i
COc1ccc(/C=C/c2nc(C#N)c(N3CCN(C(=O)c4ccccc4C)CC3)o2)cc1	i
COc1ccc(C(C)n2c(=O)[nH]c3c(-c4ccccn4)nsc3c2=O)cc1 (stereo not given)	i
COc1cccc(NCc2cc(=O)oc3cc(C)c(O)cc23)c1	i
COCCc1nnc(NC(=O)/C=C/c2ccc(OC)c(OC)c2)o1	i

Later entries
SMILES	GIRK2 act
CCc1nccn1CC1CCN(S(=O)(=O)c2cc(C)ccc2OC)CC1	i
CCCn1c(C(=O)NCCc2ccc(S(N)(=O)=O)cc2)cc2c(=O)n(C)c(=O)n(C)c21	i
Cc1ccc(NCCn2c(C)c(C)n3c4c(=O)[nH]c(=O)n(C)c4nc23)cc1Cl	i
CCOC(=O)C1CCCN(C(=O)c2nnn(-c3ccc(C(F)(F)F)cc3)n2)C1 (stereo not given)	i
CN(C)C(=O)CCSC(SCCC(=O)O)c1cccc(/C=C/c2ccc3ccc(Cl)cc3n2)c1 (stereo not given)	i
CSc1cccc(NC(=O)Cn2c(=O)nc(-c3ccccc3)c3ccccc32)c1	i
COc1ccc(CCn2c(C)cn3c4c(=O)n(Cc5ccccc5)c(=O)n(C)c4nc23)cc1OC	i
Cc1nc(C)c(C(=O)NCCOc2cccc3cccnc23)s1	i
N#Cc1nc(-c2cccc(Cl)c2)oc1N1CCN(C(=O)c2ccco2)CC1	i
CCOc1ccccc1NC(=O)NCC(C)(O)CCSC (stereo not given)	i
CCCCN1C(=O)CCc2cc(NC(=O)c3ccc(OCC)cc3)ccc21	i
O=C(c1ccccn1)N1CCC(Oc2nc3c(Cl)cccc3s2)CC1	i
Cc1cc(C)nc(N2CCN(c3nc(C)nc4c3oc3ccccc34)CC2)n1	i
CCOC(=O)C(Oc1ccc2c(=O)c(-c3ccc(OC)c(OC)c3)c(C)oc2c1)c1ccccc1 (stereo not given)	i
O=C(c1cnn2c(-c3ccccn3)ccnc12)N1CCC2(CC1)OCCO2	i
Cc1cc(C(O)CCNC(=O)NC2CCCC2)c(C)o1 (stereo not given)	i
O=C(Cc1ccc(F)cc1)NC1CCN(C(=O)c2cn(-c3cccc(Cl)c3)nn2)CC1	i
O=C(c1cncc(Br)c1)N1CC(Oc2nc3c(Cl)cccc3s2)C1	i
CCC1CCCCN1C(=O)c1cnc2nc(C)ccc2c1Nc1ccccc1C(N)=O (stereo not given)	i
COc1cccc(NC(=O)Cn2cc(C(=O)c3ccc(Cl)cc3)c(=O)c3cc(OC)ccc32)c1	i
COC(=O)c1ccc(NC(=O)CCc2csc(NC(=O)c3ccco3)n2)cc1	i
O=S(=O)(c1cccc(Cl)c1)N(CCc1cccs1)Cc1ccco1	i
CN(Cc1ccccc1)Cc1nc2c([nH]1)c(=O)n(C)c(=O)n2C	i
CN1CCN(NC(=O)c2ccc3nccnc3c2)CC1	i
COc1ccc(CNC(=O)N2CCC(CSc3ccccn3)CC2)cc1	i

(more compounds)
SMILES	GIRK2 act
O=S(=O)(NC1CCCCC1N1CCCCC1)c1ccccc1 (stereo not given)	i
CCCC(=O)N1CCN(C(=O)C(NC(=O)c2cccs2)S(=O)(=O)c2ccc(C)cc2)CC1 (stereo not given)	i
Cc1cc(-c2nnc(NC(=O)c3ccc4c(c3)OCCO4)o2)c(C)o1	i
Cn1c(=O)c(C(=O)Nc2ccc(Cl)cc2Cl)cc2cccnc21	i
COc1ccccc1NC(=O)C(=O)NCC(c1cn(C)c2ccccc12)N(C)C (stereo not given)	i
Cn1nc(-c2ccc(F)cc2)cc1C(=O)N1CCC(S(C)(=O)=O)CC1	i
CC(=O)c1ccc(NC(=O)CN2CCC(c3nc(-c4ccc(F)cc4)no3)CC2)cc1	i
Cc1ccc(=O)n(CC(=O)NCc2sc(-c3ccccc3F)nc2C)n1	i
N#C/C(C(=O)N1CCCCC1)=C1/SC(Cc2cccc(Cl)c2Cl)C(=O)N1c1ccccc1 (stereo not given)	i
CCc1c(C)nc2n(c1=O)CC(C(=O)N(Cc1ccccc1)C(C)C)CS2 (stereo not given)	i
CCOc1ccccc1-n1c(C)c(C)n2c3c(=O)n(CCN4CCOCC4)c(=O)n(C)c3nc12	i
O=C(c1cc(-c2ccco2)[nH]n1)N1CCN(CC(O)C2CC2)CC1 (stereo not given)	i
COc1ccc(C(=O)c2oc3ccc(NC(=O)C4CC4)cc3c2C)cc1OC	i
Cc1oc(-c2cccc(C(F)(F)F)c2)cc1C(=O)Nc1nccs1	i
CCOc1cc(C)ccc1S(=O)(=O)N1CCCCC1	i
CCOc1coc(C(=O)NCCc2ccc(Cl)cc2)cc1=O	i
COc1cccc(CNC(=O)Cn2cc(-c3nc(-c4ccc(Cl)cc4)no3)ccc2=O)c1OC	i
COc1cccc2sc(N3CC(OC(=O)c4cnc5ccccc5n4)C3)nc12	i
Cc1noc(-c2ccnc(SCC(=O)Nc3ccc4c(c3)OCO4)c2)n1	i
COc1ccc(/C=N\Nc2nc3c(c(=O)n(C)c(=O)n3C)n2CC(O)COC(C)C)cc1 (stereo not given)	i
Cn1cc(C(=O)N2CCN(CC(O)c3cccs3)CC2)nn1 (stereo not given)	i
O=C(O)CCN1CNC(=S)NC1	i
O=C(Nc1cccnc1)C1CN(C(=O)c2cnccn2)C1	i
Cc1noc(C)c1CN1CCN(C(=O)C2(c3ccc(Cl)cc3)CCCC2)CC1	i
Cc1cc(=O)n(CC(=O)Nc2ccc(C)c(C)c2)c(N2CCCC2)n1	i
Cc1nc2cc(NC(=O)CN(C)C(=O)c3c[nH]c4ccccc34)ccc2s1	i
Cn1c(C2CCCN(S(C)(=O)=O)C2)nn(CC(=O)NC2CCCCC2)c1=O (stereo not given)	i

In the list so far, these contain a nitro group on carbon.
SMILES	GIRK2 act
O=C(/C=C/c1cccc([N+](=O)[O-])c1)Nc1ccccc1	i
O=C(CSc1ncc(-c2cccc([N+](=O)[O-])c2)n1-c1ccccc1)N1CCCC1	i
O=C(NCCCS(=O)(=O)N1CCN(c2ccccn2)CC1)c1ccc([N+](=O)[O-])o1	i
N#CCSc1ncc(-c2cccc([N+](=O)[O-])c2)n1-c1ccccc1	i

Screening results deposited in PubChem BioAssay by Vanderbilt University.
